MbtI inh: MbtI salicylate synthase inhibition. purified MbtI enzyme, fluorescence intensity read-out. inhibition, %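 (about 17 µg/mL by stock and volumes)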. actives 0.89% (n = 100,000). AID 493033;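 active = above 50% in both replicates, above 80% if mildly self-fluorescent; inactive = the rest, strongly fluorescent compounds included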;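 also: 0% = mean of negative and 100% = mean of positive controls; one replicate is shown; some compounds called inactive have numbers as strong as hits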
Target sequence (P9WFX0 whole entry, looked up): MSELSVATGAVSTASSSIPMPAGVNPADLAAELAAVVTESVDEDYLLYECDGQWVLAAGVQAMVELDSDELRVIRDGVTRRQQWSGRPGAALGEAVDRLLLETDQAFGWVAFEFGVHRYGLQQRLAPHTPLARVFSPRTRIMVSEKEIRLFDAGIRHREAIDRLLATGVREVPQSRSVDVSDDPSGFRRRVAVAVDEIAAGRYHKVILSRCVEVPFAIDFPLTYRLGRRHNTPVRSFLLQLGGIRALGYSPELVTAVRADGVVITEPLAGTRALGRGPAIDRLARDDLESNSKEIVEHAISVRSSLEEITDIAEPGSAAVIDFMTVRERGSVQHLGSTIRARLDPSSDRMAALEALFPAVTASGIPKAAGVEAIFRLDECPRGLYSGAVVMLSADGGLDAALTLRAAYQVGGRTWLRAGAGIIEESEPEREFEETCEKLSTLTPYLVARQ
MenB inh: Mtb MenB enzyme inhibition | actives 0.43% (n = 100,000) | AID 540299 | P9WNP5 | inhibition, %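 (about 12 µg/mL by stock and volumes)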 | MenB enzyme assay, absorbance read-out; some hits fall short of the stated cut;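 active = mean of two replicates above 30%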;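 also: 0% = no compound and 100% = wells with inactive enzyme; the first replicate is given; strong numbers were not always called active; inactives centre near -10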
Polio RdRp inh: poliovirus RNA polymerase inhibition. % elongation, % (compound at 16.7 µg/mL). P03300. actives 0.66% (n = 150,000). poliovirus polymerase elongation, fluorescence polarization; active compounds read low; in the data active = % elongation below about 90%; also: some results filed as inactive read as strong as hits
Target sequence (P03300 1749-2209 limits assumed): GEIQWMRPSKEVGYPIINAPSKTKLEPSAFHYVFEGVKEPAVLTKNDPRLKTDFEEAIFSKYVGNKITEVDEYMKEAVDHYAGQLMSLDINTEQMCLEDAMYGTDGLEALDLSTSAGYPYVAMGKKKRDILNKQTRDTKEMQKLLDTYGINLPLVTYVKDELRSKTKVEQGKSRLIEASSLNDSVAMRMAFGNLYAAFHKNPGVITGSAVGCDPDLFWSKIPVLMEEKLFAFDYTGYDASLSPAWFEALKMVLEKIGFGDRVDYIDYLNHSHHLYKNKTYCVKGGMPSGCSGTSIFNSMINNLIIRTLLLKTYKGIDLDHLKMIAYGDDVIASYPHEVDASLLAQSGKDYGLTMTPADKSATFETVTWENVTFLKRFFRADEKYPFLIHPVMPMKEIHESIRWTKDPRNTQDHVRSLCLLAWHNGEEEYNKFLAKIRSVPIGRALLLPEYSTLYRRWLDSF
Polio RdRp inh intensity: further read-out of Polio RdRp inh, marked with its call; % elongation; measured here: total intensity read-out; formula for this scale not given here;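 total fluorescence in place of polarization; lower means less elongation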
An asterisk follows results filed as active; i = inactive; . = not tested or not shown; & = joins results of further samples.

item	Structure	MbtI inh	MenB inh	Polio RdRp inh	Polio RdRp inh intensity
1	CCOC(=O)N1CCC(NC(=O)/C=C/C(=O)O)CC1	4	5	102	102
2	COCC(=O)N1CCCc2ccccc21	-13	-19	101	105
3	Cc1cc2ccc(=O)oc2cc1OC[C@@H](O)C(C)(C)O	.	1	101	102
4	COc1ccc(-c2nnn(CN3CCCC3c3cccs3)n2)cc1OC (configuration not stated)	-2	-15	104	97
5	O=C(c1ccc(CN2CCOCC2)o1)C(F)(F)F	-6	-10	99	100
6	Cc1cccc(Nc2nc3ccccc3c3nncn23)c1	-7	1	102	102
7	Cc1cc(C(C)(C)C)cc(C)c1CC1=NCCN1	-2&-20	-5&-19	103&100	104&100
8	CC(=O)NCc1cn2ccsc2n1	6	-1	101	94
9	Cc1noc(C(=O)N(C)c2ccccc2)c1Cl	-4	-9	100	101
10	CCn1cnc2c(=O)oc3ccccc3c21	-3	-2	104	103
11	O=C1c2ccccc2C(=O)N1CC#Cc1ccccc1	6	-36	98	107
12	N#CC(c1c[nH]c2ccccc12)N1CCCC1 (configuration not stated)	1	4	.	.
13	O=C(Nc1cccnc1)c1cccc(C(F)(F)F)c1	-13	-7	102	104
14	CC1CN(S(=O)(=O)c2cccc(C(=O)NCCO)c2)CC(C)O1 (configuration not stated)	-4	-20	108	103
15	CCC(C)n1c(SCC(=O)NC2CCS(=O)(=O)C2)nc2ccccc2c1=O (configuration not stated)	-1	-8	106	107
16	O=C(CSc1nnc2n1CCCCC2)N(c1ccccc1)C1CCCCC1	4	-12	102	103
17	CCOC(=O)C(C)n1nc(C)c2c(C)n(-c3ccccc3)nc2c1=O (configuration not stated)	-1	-1	102	104
18	CC(C)CN(CC(C)C)C(=O)C1CCCCC1C(=O)O (configuration not stated)	7	30*	102	103
19	COC(=O)c1ccc(/N=C/N(C)C)o1	-3	-16	102	104
20	N#Cc1ccccc1OC1CCOC1=O (configuration not stated)	7	-1	102	101
21	CCCCC1CCC(C(=O)ON2C(=O)c3cccc4cccc(c34)C2=O)CC1 (configuration not stated)	10	-29	100	96
22	COc1ccc(/C=C2N=C(/C=C/c3ccc(C)cc3)OC\2=O)cc1OC(C)=O	10	-17	104	109
23	NCCC(=O)NCCc1cnc[nH]1	-4	-1	100	102
24	COc1ccc(-c2cc(C(=O)NCC(=O)O)c(C)o2)cc1OC	-3	-17	107	101
25	COc1ccc2c(Cl)c(C(=O)NN=C3CCN(C)CC3)sc2c1	17	-10	100	106
26	N#CC(C#N)=Cc1ccsc1	-15	-21	91	89
27	Cc1nonc1NCc1ccc(N(C)C)cc1	-5	-10	104	100
28	O=C(CC(NS(=O)(=O)c1ccc(Br)cc1)c1ccco1)NC1CC1 (configuration not stated)	1	-5	101	108
29	COc1ccc(-n2nc(C#N)c(N)c(C#N)c2=N)cc1	.	-10	102	105
30	CCn1cc(S(=O)(=O)Nc2cc(C)on2)cn1	-8	1	99	101
31	CN(C)c1ccc(/C=C/C=N/n2cnnc2)cc1	-2	.	122	135
32	CCOCCCn1c(=S)[nH]c2cc(C(=O)N3CCN(c4ccccc4)CC3)ccc2c1=O	1	16	101	101
33	O=C(NCCOc1ccccc1)C1CCCCC1	-13	.	101	97
34	Cc1c(C(=O)NCCc2ccccc2)oc2ccc(S(=O)(=O)N3CCCC3)cc12	-7	-28	101	102
35	N#CC1=C(SCc2ccccc2)SC(c2ccccc2O)NC1=O (configuration not stated)	21	-1	102	105
36	CCN(CC)/C(C)=N/C(=O)Nc1ccccc1	11	0	100	104
37	O=Cc1c(O)c2ccccc2c2ccccc12	18	-74	124	82
38	O=C(NCCO)NC12CC3CC(CC(C3)C1)C2	-1	6	104	102
39	Cc1cc(C)c2c(C)cc(=O)n(C)c2n1	28	1	97	109
40	C=C/C(=C\C=C/C)N1C(=O)SC(Nc2ccc(C(=O)O)cc2)C1=O (configuration not stated)	17	-22	99	92
41	N#C/C(=C1\CCCN1)c1nc(-c2ccccc2)cs1	1	.	102	102
42	CC(=O)NCCOc1cccc2ccccc12	173	-6	103	104
43	CC1(C)CC(N2C(=O)OC(C)(C3CC4C=CC3C4)C2(C)O)CC(C)(C)N1 (configuration not stated)	.	-17	105	108
44	CSc1sc(C(=O)O)c2c1S(=O)(=O)N(C)c1ccccc1-2	-6	-9	101	108
45	O=C(N/N=C/c1cccc(O)c1)c1ccc(-n2cnnn2)cc1	-4	7	103	105
46	CCCc1nc2sc3c(c2c(=O)n1N)CCCC3	5	33*	100	104
47	C=CCNc1nc(N(c2ccccc2)c2ccccc2)nc(-n2ccnc2)n1	.	-7	104	98
48	O=C1CSC(/C=C/c2ccccc2)N1c1cc(Cl)ccc1Cl (configuration not stated)	.	-24	116	122
49	CCOC(=O)C1CCCN(C(=O)c2ccc(F)cc2)C1 (configuration not stated)	.	-8	107	113
50	O=C1c2cccc3cccc(c23)N1S(=O)(=O)c1ccc(Br)cc1	14	-6	98	97
51	CC(=O)N1C(C(=O)NCc2ccc(C)cc2)CSC12CCN(C)CC2 (configuration not stated)	0	5	101	98
52	O=C(COC(=O)c1cccnc1Cl)Nc1ccccc1C(F)(F)F	2	.	99	92
53	CCOC(=O)Nc1sccc1C(N)=O	1	-4	100	105
54	COc1ccc2nc(NC(=O)CNS(=O)(=O)c3cccs3)sc2c1	2	-11	97	101
55	CC1C(=O)CCC2C(C)(COc3ccc4ccc(=O)oc4c3)CCCC12C (configuration not stated)	.	-23	105	104
56	N/C(=N\OC(=O)c1csnn1)c1ccc(-c2csnn2)cc1	-3	8	100	101
57	CSc1ncccc1C(=O)Nc1ccccc1N1CCOCC1	-1	2	102	106
58	CCn1c(=NC(=O)c2ccc(N(C)C)cc2)sc2cc(C)ccc21	-3	7	102	102
59	Cc1cccnc1NC1=NCC(C)S1 (configuration not stated)	1	9	101	104
60	O=C(COC(=O)c1cccnc1Nc1cccc(C(F)(F)F)c1)NC1CCS(=O)(=O)C1 (configuration not stated)	-1	-7	91	95

(list continues)
item	Structure	MbtI inh	MenB inh	Polio RdRp inh	Polio RdRp inh intensity
61	CN1CCC(=NNC(=O)CSCc2ccccc2)CC1	-9	-10	106	100
62	Cc1nc(-n2cccc2)sc1C(=O)NCc1ccc(F)cc1	-7	-29	102	104
63	Cc1ncc(CO)c2cc(C(N)=S)c(=Nc3ccc(NC(=O)c4ccco4)cc3)oc12	-2	-15	103	105
64	Cn1c(C(C#N)(CC(=O)N2CCCC2)CC(=O)N2CCCC2)nc2ccccc21	-6	6	100	104
65	OC1(c2ccc(F)cc2)CC2CCC(C1)N2Cc1nnnn1Cc1ccco1 (configuration not stated)	-7	0	101	102
66	CS(=O)(=O)c1ccc(C(=O)Nc2nccs2)cc1	19	-33	106	105
67	N#C/C(=C\c1cn(-c2ccccc2)nc1-c1ccc2c(c1)OCCO2)C(=O)Nc1nccs1	-4	-19	103	149
68	CCCC(=O)N1CCC(c2c[nH]c3ccccc23)(c2c[nH]c3ccccc23)CC1	-1	-23	101	103
69	CC1CCN(Cn2nc(-c3ccc4c(c3)OCO4)oc2=S)CC1	-115	-4	99	104
70	Cc1ccc(C(=O)Nc2cccc(O)c2)cc1	8	-1	100	104
71	Cc1ccccc1-c1nc(C2CCCCC2)no1	7	-5	102	102
72	CCOC(=O)c1cc(C)n(-c2ccc(C(=O)NC3CCCCCC3)cc2)c1C	-3	-54	102	103
73	CCOC(=O)C1=C(C)N(C)C(=S)N(C)C1c1ccccc1C(F)(F)F (configuration not stated)	42	-91	97	98
74	Cc1cccc(C)c1-n1c(-c2cccc(S(=O)(=O)N(C)C)c2)nn(CN2CCOCC2)c1=S	0	-28	105	102
75	O=C(NCc1sccc1COc1ccc(Cl)cc1)Nc1ccccc1F	-9	-7	105	114
76	CCN(CC)c1ccc(C(F)(F)F)cn1	-13	-4	103	100
77	CC(C)(C)N1NC2(CCCCC2)NC1=S	5	-29	101	100
78	CC(C)c1ccc(N=Cc2cccs2)cc1	1	.	101	97
79	Cc1cc(CSc2nnc(-c3ccccc3)c3ccccc23)no1	8	-35	104	106
80	C=CCn1c(=O)c2ccccc2n2c(SCC(=O)c3ccc[nH]3)nnc12	62	-2	103	108
81	CCCNS(=O)(=O)c1cc2c3c(c1)c(C)cc(=O)n3CCC2	39	-16	100	101
82	Cc1ccc(S(=O)(=O)n2c(CN3CCCC(C)C3)nc3ccccc32)cc1 (configuration not stated)	-4	8	102	107
83	Cc1cccc(N2CCN(Cc3csc(C)c3C)CC2C)c1 (configuration not stated)	4	-2	100	101
84	CCOC(=O)/C(C#N)=C/Nc1sccc1C#N	20	-179	116	230
85	CCCNC(=O)CC1C(=O)N(Cc2ccccc2)C(C)c2nc3ccccc3n21 (configuration not stated)	-2	-10	101	102
86	CC1(C)CC(NCc2cccs2)CC(C)(C)N1	.	7	102	110
87	CCN(CC)C(=O)Cn1cnc2ccccc2c1=O	0	-38	103	99
88	CCCOc1ccc(C(=O)CCC(=O)O)cc1OCCC	-6	-17	102	107
89	CCOC(=O)C(C)n1nc(CC)n2c(cc3occc32)c1=O (configuration not stated)	-1	-9	104	103
90	COC(=O)Oc1c(Br)c(=O)oc2ccccc12	-18	-13	98	101
91	CC(C)(C)C1(C)OC(=O)C(=Cc2ccccc2Cl)C(=O)O1 (configuration not stated)	-10	-13	95	96
92	O=C(/C=C/c1cccs1)Nc1ccc(Nc2ccccc2)cc1	-1	.	102	102
93	O=C(Nc1ccc(Cl)c(Cl)c1)N(Cc1ccccc1)Cc1ccccc1	.	-42	100	109
94	Cc1cc(N=Cc2ccc(N3CCOCC3)cc2)ccc1Br	-1	.	98	97
95	Cc1nnc(NCCc2ccccc2)n(N)c1=O	15	-18	104	104
96	O=S(=O)(NCCc1ccccn1)c1cc(Cl)cc(Cl)c1O	-9	-1	97	89
97	Cc1c(N/C=C/C(=O)c2cccs2)c(=O)n(-c2ccccc2)n1C	7	-116	98	101
98	CCS(=O)c1ccccc1C(=O)OCC(=O)NCc1ccc(Cl)cc1 (configuration not stated)	-5	-3	107	108
99	Cc1cccc(-c2nc(C#N)c(NCc3ccccc3)o2)c1	i	-17	101	104
100	CCCCCc1ccc(C(=O)CCN(C)C)cc1	73*	-2	103	100
101	Cc1ccccc1NC(=O)C1(N(C)C(=O)Cn2nnnc2N)CCCCC1	.	-16	103	104
102	COc1ccc(C2Nc3nc4ccccc4n3C(N)=C2C#N)cc1 (configuration not stated)	-8	8	99	102
103	C=CCn1cc(C(=O)c2cc(C)ccc2O)cc(C#N)c1=O	2	-7	103	109
104	COC(=O)c1ccc(S(=O)(=O)NCc2ccc(N3CCN(C)CC3)cc2)o1	0	7	101	104
105	C=CCSc1nnc2c(n1)OC(CC)Nc1ccccc1-2 (configuration not stated)	-10	-24	96	104

Sorted by SMILES length (low to high): part of the list above.
item	Structure	MbtI inh	MenB inh	Polio RdRp inh	Polio RdRp inh intensity
95	Cc1nnc(NCCc2ccccc2)n(N)c1=O	15	-18	104	104
94	Cc1cc(N=Cc2ccc(N3CCOCC3)cc2)ccc1Br	-1	.	98	97
99	Cc1cccc(-c2nc(C#N)c(NCc3ccccc3)o2)c1	i	-17	101	104
92	O=C(/C=C/c1cccs1)Nc1ccc(Nc2ccccc2)cc1	-1	.	102	102
102	COc1ccc(C2Nc3nc4ccccc4n3C(N)=C2C#N)cc1 (configuration not stated)	-8	8	99	102
98	CCS(=O)c1ccccc1C(=O)OCC(=O)NCc1ccc(Cl)cc1 (configuration not stated)	-5	-3	107	108
101	Cc1ccccc1NC(=O)C1(N(C)C(=O)Cn2nnnc2N)CCCCC1	.	-16	103	104

Following part
item	Structure	MbtI inh	MenB inh	Polio RdRp inh	Polio RdRp inh intensity
106	O=C(CCCc1nc(-c2ccccc2)no1)Nc1ccccc1	0	6	103	97
107	C=CCn1c(SCC(=O)OCC)nc2cc(C(=O)NCc3ccco3)ccc2c1=O	-3	1	101	107
108	O=C(NC1=NCCS1)c1ccccc1OCc1ccccc1	-7	.	102	104
109	CSCCSc1nnnn1-c1ccc(O)cc1	0	4	101	103
110	CCn1c(=O)sc2cccc(Cl)c21	-2	-3	98	102
111	CC1CCCCC1NC(=O)CSc1nncs1 (configuration not stated)	3	-9	101	104

Screens (PubChem)
